From PubChem BioAssay
gsp agonist = activates gsp, the McCune-Albright syndrome mutation. gsp mutant cells, cAMP HTRF, 30 min; control for the full effect not named in the record. Potency, µM (top dose mostly 76.9 µM), for inactives: at the highest dose activation (cAMP increase), hits mostly activators. 0.13% of 340,000 active. AID 624287; active = well fitted activation curve with a large enough effect; inconclusive = small, poorly fitted or top-dose-only effect, or another doubt; inactive = no such curve, though single readings can be large or run the other way; cell line not stated here;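 further: phosphodiesterase inhibitor Ro 20-1724 added with compounds to block cAMP breakdown; potency means the concentration at half of the fitted maximal effect; nearly all actives have a fitted effect of over 60% in size; about a fifth of the inactives were tested at one dose only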
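Cells in DMEM/10% FBS with G418 were pretreated with compounds in DMSO plus […] (300 uM stock) for 30 min at 37C. cAMP was measured by HTRF (cAMP-d2 plus anti-cAMP antibody-K) after 30 min at room temperature.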
gsp antag = antagonizes gsp, the McCune-Albright syndrome mutation; gsp-mutant cells, cAMP HTRF, 30 min; control for the full effect not named in the record; Potency, µM (titrated, usually from 76.9 µM), without a hit: at the highest dose activity change, negative = inhibition, usual class: inhibitors; 0.4% of 340,000 active; active = falling curve of any shape with a large fitted effect; inconclusive = falling curve, mostly with a smaller effect; inactive = flat or rising curve; cell line not stated here;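 further: intracellular cAMP measured with PDE inhibitor Ro 20-1724 present during compound exposure; potency means the concentration at half of the fitted maximal effect; on the % scale 0 is the no-effect control and ±100 the full control effect; nearly all actives have a fitted effect of over 65% in size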
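Measurement of cellular cAMP by homogeneous time-resolved fluorescence following a 30 min compound exposure at 37C. The PDE inhibitor […] was present throughout; the assay buffer was DPBS with 0.05% BSA and 0.005% Tween 20.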
TRPV1 PAM = human TRPV1 potentiation; 0.02% of 320,000 active; Q8NER1; potentiation, % at 8.33 µM; TRPV1-expressing cells, Fluo-8 calcium influx, capsaicin EC20 potentiation; host cell line not named in the record; control for the full effect not named in the record; active means potentiation above 80%; inconclusive means 30% to 80%; inactive means below 30%; further: 0% is about no effect
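Cells expressing TRPV1 were dye-loaded with Fluo-8 and read kinetically: 10 s baseline, 3 min after compound (agonist portion), then 2 min after EC20 capsaicin (allosteric enhancer portion). Calcium-bound dye fluorescence at 480/520 nm.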
ClpP mod = qHTS Assay for Activators of ClpP; ATP-dependent Clp protease proteolytic subunit (Bacillus subtilis (strain 168)), P80244; purified B. subtilis ClpP, FRET peptide cleavage, 20 min; Potency, µM (series often up to 57.5 µM), for the others: at the top dose activity change, negative = active; 1.9% of 340,000 active; AID 651965, 2013; active = well fitted falling curve with a large enough effect; inconclusive = small, poorly fitted or top-dose-only effect; inactive = no such curve, though single readings can be large or run the other way; further: potency means the concentration at half of the fitted maximal effect; the source files actives as falling curves though it sought activators and does not explain the sign; nearly all actives have a fitted effect of over 65% in size; many hits overshoot -100%
Target sequence (P80244 whole entry, looked up): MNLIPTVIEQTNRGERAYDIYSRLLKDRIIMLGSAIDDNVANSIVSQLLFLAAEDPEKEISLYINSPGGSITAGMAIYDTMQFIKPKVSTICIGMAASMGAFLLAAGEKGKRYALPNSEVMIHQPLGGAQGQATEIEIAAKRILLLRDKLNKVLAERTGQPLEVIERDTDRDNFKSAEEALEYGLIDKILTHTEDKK
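ClpP 10 microg/mL final, pH 8 Tris/KCl buffer with BSA, glycerol, Tween-20; compound pinned in; FRET-FV substrate; RT 20 min; Ex320/Em430; ΔFRET vs ADEP 5.8 microM, DMSO, no enzyme.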
Sfp PPTase inh = blocks B. subtilis Sfp PPTase activity. Q9F4F7. Biochemical Sfp PPTase activity, qHTS. Potency, µM, for the others: max response, negative = inhibition, hits mostly inhibitors. 3.5% of 310,000 active. AID 1490; active means well fitted inhibition curve with a large enough effect; inconclusive means small, poorly fitted or top-dose-only effect, or another doubt; inactive means no such curve, though single readings can be large or run the other way;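 further: the enzyme is Sfp with the accession as filed and its product quenches rhodamine fluorescence; potency means the concentration at half of the fitted maximal effect; 0% = enzyme reaction without inhibitor and -100% = no enzyme wells; top concentration of the series not given in the record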
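After 15 min at room temperature with compound, 15 nM Sfp received 5 uM rhodamine-CoA plus 12.5 uM BHQ-2-ybbR (50 mM Hepes pH 7.6, 10 mM MgCl2). Rate came from the fluorescence difference over 30 min, ex 525/em 598 nm.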
Menin-MLL FL inh = inhibitors of human menin-MLL interaction, wild-type MLL peptide. FP activity change, % at 61.4 µM. Fluorescence polarization, fluorescein-MLL peptide displacement from menin. 290,000 tested, under 10 active. AID 1766; inconclusive = falling polarisation curve, or a change in total fluorescence; inactive = total fluorescence flat and polarisation flat or rising; no compound was filed as active; the % refers to the polarisation; negative = inhibition;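 further: % of control where 0% means no effect; inhibitors lower the polarisation; unlabelled MLL peptide was the positive control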
D2 potentiator = positive allosteric modulators of human D2 dopamine receptor; P14416; DiscoveRx D2 beta-arrestin cells, luminescence, 90 min; 100% = 57 uM dopamine signal; potentiation, % (no concentration beside the values); 0.23% of 360,000 active; AID 624464; active = potentiation of 50% or more; inconclusive = 30% to 50%; inactive = 30% or less;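 further: compound concentration not given in the record; tested on top of an EC20 dose of dopamine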
Target sequence (P14416 whole entry, looked up): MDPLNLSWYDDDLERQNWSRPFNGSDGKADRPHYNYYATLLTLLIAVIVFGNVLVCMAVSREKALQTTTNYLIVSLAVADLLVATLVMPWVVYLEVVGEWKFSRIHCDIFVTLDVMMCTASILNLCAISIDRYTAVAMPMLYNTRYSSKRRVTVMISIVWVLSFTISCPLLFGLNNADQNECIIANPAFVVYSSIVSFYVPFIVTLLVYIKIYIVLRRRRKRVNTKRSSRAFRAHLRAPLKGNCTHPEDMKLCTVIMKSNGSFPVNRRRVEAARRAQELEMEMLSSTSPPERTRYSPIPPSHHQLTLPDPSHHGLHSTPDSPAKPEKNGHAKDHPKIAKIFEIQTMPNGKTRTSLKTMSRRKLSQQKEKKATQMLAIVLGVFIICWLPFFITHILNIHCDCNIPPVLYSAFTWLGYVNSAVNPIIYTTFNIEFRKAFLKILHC
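PathHunter beta-arrestin assay in DiscoveRx D2 cells. Compounds were added with an EC20 of dopamine (50 nM final) for 90 min at 37 deg C. Luminescence was read 1 h after detection reagent, with 57 uM dopamine as the EC100 control.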
An asterisk follows results filed as active; ? = inconclusive; . = no result given; [ ] = dose if it differs, or a comment.

compound	gsp agonist	gsp antag	TRPV1 PAM	ClpP mod	Sfp PPTase inh	Menin-MLL FL inh	D2 potentiator
CN1C(=O)/C(=C/c2ccccc2F)Sc2ccc(C(=O)N3CCCC3)cc21	5%	28µM*	-12	.	-13%	.	10
O=C(CCNC(=O)c1ccccc1Cl)Nc1nccs1	0%[15.4 µM]	12%	-5	.	11%	2.2	-1
Cc1cc(C)c(C(=O)COC(=O)C2CCN(c3ccc(C(F)(F)F)cn3)CC2)c(C)c1	-16%	-13%	4	-16%	.	.	1
CC1CC(C)CN(C(=O)c2ccc(CSc3nc4ccncc4[nH]3)cc2)C1 (stereo unspecified)	-28%	-1%	20	-1.7%	10%	2.8	3
O=C(NCC(=O)N1CCN(Cc2ccc3c(c2)OCO3)CC1)c1ccccc1F	7%	5%	.	.	.	.	-3
COc1cc(CN2CCN(C(=O)c3ccc(-c4ccccc4)cc3)CC2)cc(OC)c1OC	20%	-25%	-10	0.0%	0%	0.2	-11
CC(NC(=O)NC(=O)c1ccc(Cl)cc1)c1ccccc1 (stereo unspecified)	16%	3%	-10	-2.4%	0%	4.5	-20
O=C(NC1=NCCS1)C1COc2ccccc2O1 (stereo unspecified)	1%[15.4 µM]	7%	8	0.6%	1%	4.6	-8
NC(=O)c1ccc(-n2nnnc2Oc2ccccc2C(=O)N2CCOCC2)cc1	-13%	-9%	?	-10%	3%	-0.6	11
CCNC(=O)CN(Cc1ccccc1)S(=O)(=O)c1ccccc1	-15%	-5%	-3	-1.5%	14%	4.8	3
Cc1ccc(CSc2nnc(-c3ccccn3)n2C)cc1	12%	-2%	-18	0.9%	5%	6.7	-4
COc1ccc(CCNCC(=O)Nc2ccc(C)c(Br)c2)cc1OC	-80%[inhibitor]	-6%	-8	.	-18%	1.9	-22
NC(=O)C1Cc2ccccc2CN1C(=O)c1cc(C2CC2)nn1-c1ccccc1 (stereo unspecified)	-21%	-12%	.	0.5%	.	.	1
CCOc1ccc(S(=O)(=O)N2CCCC(C(=O)NC3CC3)C2)cc1Cl (stereo unspecified)	-1%[15.4 µM]	0%	-6	-5.5%	.	.	-34
CCn1c(CNC(=O)Cc2ccc(OC)cc2)nnc1SCC(=O)Nc1ccc(C(=O)O)cc1	-32%[inhibitor]	-5%	1	.	11%	-1.1	-4
CN(CC(=O)Nc1ccc(Cl)c(C(F)(F)F)c1)C(=O)c1cc(=O)c2ccccc2o1	3%	-13%	1	-0.5%	.	.	-15
CC1CCCCN1CCCn1c(=S)[nH]c2ccccc2c1=O (stereo unspecified)	1%	20%	-4	-1.2%	14%	1.8	-3
Cc1cc(C)c2nncn2n1	-5%[15.4 µM]	10%	4	.	9%	2.8	-7
Cc1ccc(C)c(-n2nnnc2SCC(=O)NCC2CCCO2)c1 (stereo unspecified)	2%	16%	-7	1.4%	.	.	-3
O=C(NC(=S)NCC1CCCO1)c1ccc(Cl)cc1 (stereo unspecified)	-16%	2%	0	-4.8%	11%	0.9	-4
COc1ccc(N2CC(C(=O)Nc3ccc(S(=O)(=O)N4CCCCC4)cc3)CC2=O)cc1 (stereo unspecified)	0%	-1%	-1	0.8%	-9%	-4.1	7
COc1ccc(NC(=O)C2CC(=O)N(Cc3ccco3)C2)cc1Cl (stereo unspecified)	-2%	-3%	-5	1.3%	.	.	-5
CN(C)S(=O)(=O)Oc1cccc(C(=O)Nc2ccc([N+](=O)[O-])cc2)c1	11%[15.4 µM]	?	-4	.	2%	6.5	-8
Cc1ccc(C(=O)Nn2cnc3ccccc3c2=O)cc1C	27%	4%	-14	-2.8%	4%	2.0	5
COC(=O)CN(c1cccc(OC)c1)S(C)(=O)=O	2%	11%	3	-0.6%	1%	1.9	-4
COc1nn(-c2ccccc2)c(=O)c(Cl)c1Cl	-25%[15.4 µM]	-12%	6	-1.2%	11%	-3.9	-7
COc1ccc(-n2c(=O)c3c4c(sc3n3c(=S)[nH]nc23)COC(C(C)C)C4)cc1 (stereo unspecified)	-8%[15.4 µM]	-15%	9	.	0%	-0.6	-17
O=C1CCc2cc(NS(=O)(=O)c3ccccc3)cc3c2N1CCC3	-4%[15.4 µM]	-4%	3	.	.	.	1
O=C(CCc1nnc(-c2ccc3c(c2)OCO3)o1)N1CCC(c2ccc(F)cc2)C1 (stereo unspecified)	-2%	-12%	6	.	0%	0.7	-2
O=C(COC(=O)c1ccccc1NC(=O)c1ccco1)NC1CCS(=O)(=O)C1 (stereo unspecified)	-15%[15.4 µM]	-11%	20	.	5%	-1.2	1
O=C(CCCCCn1c(SCC(=O)c2ccccc2)nc2ccccc2c1=O)NCc1ccco1	0%	-11%	7	-2.8%	-6%	6.1	-22
Cc1noc(NS(=O)(=O)c2ccc(NC(=O)c3ccc(OC(C)C)cc3)cc2)c1C	-2%[15.4 µM]	-7%	-1	.	19%	1.4	-6
O=C(c1ccccc1)c1ccccn1	25%	8%	-1	.	0%	1.0	-1
COc1ccccc1OCCCCn1c(C(C)O)nc2ccccc21 (stereo unspecified)	-39%[inhibitor]	-1%	-19	-1.0%	10%	-3.7	0
Clc1cc2c(c(CSc3nc4ccccc4n4cccc34)c1)OCOC2	?	4%	24	.	3%	-3.4	-2
O=C(COC(=O)CNC(=O)c1cccc(OC(F)F)c1)NNC(=O)c1ccccc1	-30%[inhibitor]	3%	-3	1.2%	.	.	-2
N#CCCN(C(=O)CSc1ncccn1)c1ccc2c(c1)OCCO2	-6%	11%	-22	1.0%	.	.	4
CCOc1ccc(/C=N/NC(=O)c2c(C)n(C)c3ccc(OC)cc23)cc1	-12%[15.4 µM]	10%	2	5.6%	0%	1.6	-2
O=C(NC(=S)Nc1ccccc1N1CCCC1)c1ccco1	-7%[15.4 µM]	?	12	.	32µM*	?	-6
NC(=O)c1nc(C2CCCCC2)nc2c1[nH]c(=O)n2-c1ccc(F)cc1	-10%	2%	.	4.8%	14%	0.4	-4
COC(=O)c1cc(NC(=O)Cc2coc3cc(OC)ccc23)cc(C(=O)OC)c1	-34%[inhibitor]	-1%	6	-3.4%	3%	-1.1	-5
O=C(CCNC(=O)c1ccc([N+](=O)[O-])cc1)Oc1ccc(F)c(F)c1	-9%	-27%	.	1.7%	.	.	-4
N#CCCN(C(=O)COC(=O)c1ccc2c(c1)OCO2)c1ccccc1	-16%	-4%	17	-18%	.	.	0
CCOC(=O)c1[nH]cnc1C(=O)Nc1cccc(OC)c1	10%	4%	-11	-0.8%	5%	5.2	1
Cc1cccc(C)c1NC(=O)COC(=O)c1ccc2c(c1)OCO2	5%	9%	-4	-2.3%	18%	0.3	0
CCOC(=O)C1=C(N)OC2=C(C(=O)CCC2)C1c1sccc1C (stereo unspecified)	?	-18%	15	-0.9%	2%	5.2	-1
CCCCc1nnc(NC(=O)C(=O)OCC)s1	-2%	5%	4	.	-10%	-3.5	-3
CCC(C)NC(=O)C1CCCN(c2nc(C)cc(OC)n2)C1 (stereo unspecified)	-20%	8%	1	3.5%	-6%	0.8	-4
Cc1cc(=O)n2c(n1)NC(Nc1cccc(C)c1C)=NC2c1ccccc1 (stereo unspecified)	-24%	?	0	-3.4%	14%	1.4	-4
Cn1c(=O)c(C(=O)NCC2CCCO2)c(O)c2ccccc21 (stereo unspecified)	7%[15.4 µM]	1%	5	.	24%	-3.9	-9
O=C(CSc1nnc(CNC(=O)c2ccccc2F)o1)NCc1ccccc1	?	12%	3	1.2%	10%	2.8	1
Cn1c(N)c(C(=O)COC(=O)CCC(=O)c2ccc(F)cc2)c(=O)n(C)c1=O	?	-1%	-2	.	17%	-0.1	2
COc1ccccc1N(CC(O)CN1C(=O)NC(C)(C)C1=O)S(=O)(=O)c1ccc(C)cc1 (stereo unspecified)	-23%	-5%[15.4 µM]	1	-2.9%	?	-2.5	-9
O=C(NNc1c2ccccc2nc2ccccc12)c1cc2ccccc2cc1O	-9%	-21%	8	-5.7%	-15%	4.5	-44
COC(=O)Nc1ccc(=O)n(Cc2c(Cl)cccc2Cl)c1	10%	-5%	.	28µM*	-10%	0.1	0
COc1cc(OC)cc(C(=O)OCC(=O)Nc2cccc(C(C)=O)c2)c1	-9%[15.4 µM]	-7%	-3	.	2%	-15	-3
C=CCC(=O)N(CC)CC1CCCN(CCc2cccc(F)c2)C1 (stereo unspecified)	3%	8%	-1	-0.3%	-3%	-5.7	-1
COC(=O)c1ccc(CN2CCN(Cc3ccc(F)cc3)C(CCO)C2)cc1 (stereo unspecified)	-9%[15.4 µM]	10%	27	-7.4%	18%	-6.9	-16
COc1ccc(/C=C2\C(=O)N(Cc3ccc(F)cc3)CC(=O)N2Cc2ccccc2)cc1	15%	-5%	2	-1.0%	25%	0.5	-14
Cc1ccc(C(=O)NCCc2nnc3ccc(SCC(=O)Nc4ccccc4F)nn23)cc1	10%	4%	-6	-22%	1%	.	16
Cc1cc(=O)n2[nH]c(COc3ccccc3)nc2n1	-27%	-20%	19	?	8%	-0.3	14
